Sa growth 42C: S. aureus growth inhibition at 42 and 30 °C, primary screen, LtaS inhibitor project, RN4220, two temperatures | AID 720641, 2013 | OD600, 20 h, 42 °C; stronger effect = lower value | 170,000 tested, 0.53% active | relative growth, % (no concentration beside the values);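 active = growth at 42 °C up to 50% and 20 or more points under that at 30 °C, or under 10% at both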;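 note: 300 nL library stock went into each well; scaled to the means of positive and negative controls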
HCMV NEC inh: inhibitors of HCMV UL50-UL53 interaction, biochemical, HTRF; 190,000 tested, 0.15% active; AID 1918969, 2023; HCMV UL50-UL53 nuclear egress complex (human cytomegalovirus); inhibition, % (no concentration beside the values); normalized percent inhibition;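 active = both replicates at 50% or more, plus weaker picks with an unusually low signal ratio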;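 note: stock transfer was 100 nL into about 20 µL; 0% = negative control wells and 100% = wells with untagged competitor protein; inactives centre near -12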
GIV Gai3 FP: inhibitors of GIV peptide binding to Galpha-i3, primary screen, biochemical, fluorescence polarization, FITC-GIV GBA peptide, rat Galphai3. AID 1224905, 2016. 90 min; stronger effect = lower value; scaled: aluminum fluoride 0%, vehicle 100%. percent of control (FP), % (test concentration not listed). Guanine nucleotide-binding protein G(i) subunit alpha-3 (Rattus norvegicus), P08753. 210,000 tested, 0.42% active;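 active = replicate mean at 85% of control or lower, very high polarization wells dropped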;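 note: wells of about 15 µL received 100 nL stock; the first replicate is given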
Target sequence (P08753 whole entry, looked up): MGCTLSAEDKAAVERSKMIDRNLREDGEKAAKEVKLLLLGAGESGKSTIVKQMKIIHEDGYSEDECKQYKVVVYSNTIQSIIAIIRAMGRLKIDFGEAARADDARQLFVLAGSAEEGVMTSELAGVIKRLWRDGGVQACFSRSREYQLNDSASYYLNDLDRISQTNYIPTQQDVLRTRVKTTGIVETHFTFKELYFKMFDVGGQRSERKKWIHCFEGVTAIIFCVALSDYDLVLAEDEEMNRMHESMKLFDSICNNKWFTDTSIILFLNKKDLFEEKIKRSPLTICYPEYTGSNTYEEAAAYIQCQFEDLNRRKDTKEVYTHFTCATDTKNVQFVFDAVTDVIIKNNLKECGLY
Sa growth 42C second temp: also measured in Sa growth 42C; calls as there; relative growth, %; measured here: growth at 30 °C;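 optical density after 20 h as mean of two plates; 100% = untreated growth and lower means inhibition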
Numbers without * were called inactive; x = no result given.

The first five records, to show the layout:
SMILES	Sa growth 42C	Sa growth 42C second temp	HCMV NEC inh	GIV Gai3 FP
CCOC(=O)N1CCC(NC(=O)c2ccc3c(c2)N(Cc2ccc(F)cc2)C(=O)c2ccccc2S3(=O)=O)CC1	118	94	-4	105
Cc1cccc(N2CCN(C(=O)c3cccc(-n4nnc5cccnc54)c3C)CC2C)c1 (configuration not stated)	x	x	-33	111
O=C(COc1ccc(Cl)cc1)NCCc1csc(-c2ccc(C(F)(F)F)cc2)n1	107	89	x	94
CCc1nc2nc(C)c(NS(=O)(=O)c3ccc(F)c(C)c3)c(=O)n2[nH]1	96	91	0	110
c1ccc(Nc2c(-c3ccc(N4CCOCC4)cc3)nc3cnccn23)cc1	94	74	-23	103

Results, from the start:
SMILES	Sa growth 42C	Sa growth 42C second temp	HCMV NEC inh	GIV Gai3 FP
CCOC(=O)N1CCC(NC(=O)c2ccc3c(c2)N(Cc2ccc(F)cc2)C(=O)c2ccccc2S3(=O)=O)CC1	118	94	-4	105
Cc1cccc(N2CCN(C(=O)c3cccc(-n4nnc5cccnc54)c3C)CC2C)c1 (configuration not stated)	x	x	-33	111
O=C(COc1ccc(Cl)cc1)NCCc1csc(-c2ccc(C(F)(F)F)cc2)n1	107	89	x	94
CCc1nc2nc(C)c(NS(=O)(=O)c3ccc(F)c(C)c3)c(=O)n2[nH]1	96	91	0	110
c1ccc(Nc2c(-c3ccc(N4CCOCC4)cc3)nc3cnccn23)cc1	94	74	-23	103
Cc1ccc(CNCc2ccc3c(c2)OCO3)cc1	97	87	1	108
N#CC(C#N)=Cc1ccc(OC(=O)c2ccccn2)cc1	105	91	2	x
Cc1cc(C(=O)N/N=C2\CCCc3ccccc32)c(C)o1	97	90	-8	x
Cc1cc(C)c(NC(=O)Cn2c(=O)cc(C(=O)NCc3ccccc3)c3ccccc32)c(C)c1	x	x	-15	105
CCCS(=O)(=O)C1=C(N)OC(c2ccccc2)=C(C#N)C1c1ccc(Cl)cc1 (configuration not stated)	89	82	10	109
O=C(NCCCN1CCc2ccccc2C1)c1cccc(C2CCCN(C(=O)Nc3ccccc3)C2)c1 (configuration not stated)	x	x	-5	108
CS(=O)(=O)N1CCN(c2ccccc2F)CC1	116	95	-11	104
Cc1ccc(-n2nnc(-c3nc(-c4cccs4)no3)c2N)c(C)c1	112	98	x	110
COc1ccc(CCNC(=O)CSc2nc(-c3cccs3)nc3c2c(=O)n(C)c(=O)n3C)cc1OC	93	99	9	106
Cc1nn(CCCC(=O)NC(C)C)c(=O)c2c1sc1ccccc12	103	79	-26	103
COc1ccc(S(=O)(=O)NCc2cn3cccc(C)c3n2)cc1OC	102	89	-20	107
Clc1ccc(-c2csc(-c3[nH]ncc3Br)n2)cc1	105	81	-2	104
CC(C)NC(=O)c1cc(-c2cccs2)on1	107	88	-12	97
O=C(COC(=O)c1ccc(-n2cnnn2)cc1)Nc1ccccc1C(=O)NC1CC1	82	75	-3	x
O=C(NCCc1ccccc1)c1ccccc1O	78	45	-14	x
N#Cc1cccc(CSc2ncnc(N)n2)c1	89	85	-12	105
CC(C)Cc1nnc(NC(=O)CCn2[nH]c(=O)ccc2=O)s1	97	91	-39	x
CC12CCC(=O)N1C(C(=O)NCCN1C(=O)S/C(=C\c3ccccc3)C1=O)CS2 (configuration not stated)	80	86	-65	x
COC(=O)c1c(C)oc(C)c1S(=O)(=O)NCCSCc1c(F)cccc1Cl	89	78	-18	106
C1CN(C2OCCOC2N2CCOCC2)CCO1 (configuration not stated)	92	89	-12	x
COc1ccc(Br)cc1CN(C)CN1C(=O)C2CC=CCC2C1=O (configuration not stated)	91	93	-27	x
CC(=O)Nc1ccc(C(=O)Nc2ccc(OCC(=O)O)cc2)cc1	107	107	9	110
CC(C)CCn1c(=O)c2ccccc2n2c(=S)[nH]nc12	x	x	-26	103
CC1(C)CC(=O)C(C=NCCN2CCN(C(=O)Nc3ccc(Cl)c(Cl)c3)CC2)=C(O)C1	88	80	x	103
Cc1nn(-c2ccccc2)c2c1N(CCCC(=O)NCc1cccnc1)C(=O)CS2	x	x	-23	107
O=C1C=C(NCCOC23CC4CC(CC(C4)C2)C3)C2(CCCCC2)O1	93	86	-5	x
O=C(NC(=O)c1ccccc1)c1ccccc1	94	88	-9	x
Cc1c(C2=CCN(S(=O)(=O)c3ccc(Cl)s3)CC2)c2ccccc2n1CC(=O)N1CCCC1	114	101	-4	110
O=C(Cn1cccc1C(=O)c1ccccc1)NCCCN1CCCC1	90	85	3	102
CNc1ncc(Br)nc1Br	85	88	x	96
c1cncc(C2OCC3(CO2)COC(c2cccnc2)OC3)c1 (configuration not stated)	103	81	x	106
COC(=O)c1sc(N2C(=O)c3oc4ccccc4c(=O)c3C2c2ccc(O)cc2)nc1C (configuration not stated)	82	103	8	107
CCC(=O)N1CCc2cc(Br)cc(S(=O)(=O)N3CCCCC3)c21	98	95	6	101
CCC1CCCCN1CCCNC(=O)c1cc2c(s1)CSC2 (configuration not stated)	95	80	x	105
CCOC(=O)c1c(C)oc2ccc(OC(=O)N3CCOCC3)cc12	96	90	-21	104
CC(C)CC(=O)Nc1nonc1-c1ccccc1	80	84	-21	104
COc1cccc(CNC(=O)c2ccc3c(c2)nc2n3CCC(C)C2)c1 (configuration not stated)	105	88	x	102
Cn1c(=O)n(CC(=O)O)c(=O)c2cnc(-c3ccccc3)nc21	x	x	-22	95
CN(C(=O)COc1cccc(Br)c1)c1ccccc1	82	89	-9	x
Cc1cc(=O)[nH]c2c1cnn2C1CCCCC1	115	99	3	99
CC(C)NS(=O)(=O)c1ccc(N2C(=O)C(C)CS2(=O)=O)cc1 (configuration not stated)	x	x	-12	107
Cc1ccc(CNC(=O)CSCc2ccc(F)cc2)cc1	94	88	x	99
Cc1cccc(NC(c2cccc(F)c2)c2c(NC(=O)c3ccccc3)sc(C)c2C)n1 (configuration not stated)	x	x	-39	107
N#Cc1ccsc1NC(=O)Cn1cnc2sccc2c1=O	61	98	-39	x
CN(C)CCNC(=O)Cn1ncc2c(Cl)cccc21	89	84	x	108
CN(Cc1ccccc1)Cn1nc(-c2ccccc2)oc1=S	67	88	-15	x
CCN1C=C(C(=O)OC)C(c2ccc(C(C)C)cc2)C(C(=O)OC)=C1	126	92	-18	105
O=C1NC(=O)/C(=C\c2ccccc2)N1	86	81	-61	x
CCN(CC)C(=O)CN(C#N)c1nc(N(C)C)nc(N(C)C)n1	x	x	-35	105
Cc1ccc(NNC(=O)c2ccno2)cc1C	89	90	-7	106
O=C1CSc2ccc(C(=O)NCCCN3CCCCC3)cc2N1	97	90	x	98
CCOc1ccccc1CNC(=O)c1cc2oc3ccccc3c2n1CC	102	99	-7	98
CCOC(=O)c1c(C)oc(N)c1C(=O)OCC	96	88	-7	x
NC(=O)c1ccc(-c2cccc(C(F)(F)F)c2)o1	95	83	-17	107
COC(=O)c1sc2ncccc2c1NC(=O)c1cccc(C)c1	x	x	-21	104

Additional compounds follow:
SMILES	Sa growth 42C	Sa growth 42C second temp	HCMV NEC inh	GIV Gai3 FP
Cc1ccc(CSc2ncccc2C(F)(F)F)cc1	111	87	-26	100
CC(C)(C)S(=O)(=O)Cc1nc(-c2cccc(F)c2)cs1	129	91	-36	110
Cc1ccc(NC(=O)CC2C(=O)NC3CCCCC3N2C(=O)c2ccc(F)cc2)cc1C (configuration not stated)	93	91	-28	98
COc1ccc(CC(=O)NCCS(=O)(=O)N2CCN(c3ccc(OC)cc3)CC2)cc1	108	104	4	107
CC(C#N)(Nc1ccccc1)c1ccncc1 (configuration not stated)	99	94	0	105
COc1ccc(NC(=O)CSc2nc3ccccc3n2CC(=O)Nc2cccc(C)c2C)cc1	112	95	x	103
c1ccc(CSCc2cn3ccsc3n2)cc1	104	96	13	x
O=c1[nH]c(SCc2ccccc2F)nc2c(-c3ccccc3)c[nH]c12	x	x	-24	101
CSc1cc(-c2nccs2)nn1C(C)=O	113	101	-1	102
COc1cc(/C=C(\C#N)c2nc3ccccc3[nH]2)ccc1OCc1ccc(F)cc1	100	83	-8	112
O=C(c1ccc(CSc2ncccn2)cc1)N1CCOCC1	121	93	-8	x
Cn1cnc(S(=O)(=O)NCc2c(Cl)cccc2Oc2ccccc2)c1	94	85	-16	104
COc1ccc(NC(=O)CN(C)S(=O)(=O)c2ccc3nc(C)sc3c2)cc1	100	89	x	102
CCCCCOc1ccc(C(=O)CCN2CCOCC2)cc1	13*	43*	-6	105
CN(C)S(=O)(=O)c1ccc(C(=O)NCCS(=O)(=O)N2CCN(c3ccccc3)CC2)cc1	103	97	x	101
COc1ccc(CCNC(=O)CSCc2ccc(Cl)cc2)cc1OC	87	97	7	x
COCCNc1ncccc1-c1nc(-c2ccc(OC)cc2)no1	x	x	12	98
CCOC(=O)c1ccc(NC(=O)CCc2c(C)nc3c(c(C)nn3-c3ccccc3)c2C)cc1	99	84	-14	100
CN1CCN(c2ccc(NC(=O)CC34CC5CC(CC(C5)C3)C4)cc2)CC1	102	98	4	107
O=C(C1CC(=O)N(C2CCCCC2)C1)N1CCN(c2cccc(C(F)(F)F)c2)CC1 (configuration not stated)	106	94	-25	106
CCc1ccc(CNC(=O)c2ccc(CSc3nc4ccncc4n3Cc3ccc(OC)cc3)cc2)cc1	111	102	-17	98
CC1=C(C(=O)OCC2CCCO2)C(c2cc3c(cc2Br)OCO3)C2=C(CC(C)(C)CC2=O)N1 (configuration not stated)	x	x	-10	105
COC(=O)c1ccc(/C=N/n2c(-c3ccco3)csc2=NC2CCCCC2)cc1	86	93	-16	x
COc1ccccc1-c1c(C)nn2c(N3CCC(C(N)=O)CC3)cc(C)nc12	91	79	4	104
Cc1ccccc1N=Cc1ccc(N(C)C)cc1	88	83	-36	x
CCOC(=O)c1ccc2ncc(C(=O)OCC)c(NCCc3ccc(OC)c(OC)c3)c2c1	110	90	-18	103
CC(C)Nc1nc(NC(C)C)nc(N(C)C(N)=O)n1	80	91	-7	x
COc1ccc(C2OC(=O)CC2C(=O)NC(C)C)cc1 (configuration not stated)	92	89	x	102
Cc1ccc2[nH]c(CSc3nnc(NC(=O)COc4ccccc4Cl)s3)cc(=O)c2c1	105	86	x	101
CCCC(=O)OC1=C(C(C)=O)N(Cc2ccccc2)S(=O)(=O)c2ccccc21	87	83	-8	100
O=C(O)C1C2C=CC3(CN(CCCN4CCOCC4)C(=O)C13)O2 (configuration not stated)	99	89	-25	106
Nc1ccc(N2C(=O)c3ccccc3C2=O)c(Cl)c1	x	x	-52	105
CC1(C(=O)NC2CCCCC2)Cn2c(c(-n3cccc3)c3ccccc32)C(=O)N1CC1CCCO1 (configuration not stated)	x	x	-20	102
COc1ccc(CCNC(=O)Cn2c(=O)nc(-c3ccccc3)c3cc(Cl)ccc32)cc1OC	89	91	x	101
O=C(c1cccs1)N1CCN(Cc2cccc(Cl)c2)CC1	100	82	-9	x
O=C1CNC(=S)N1CCc1cnc[nH]1	80	84	-38	104
Fc1ccc(CSc2ncnc3nc[nH]c23)cc1	x	x	-25	94
C/C(=N\NC(=O)COc1ccc(Cl)cc1)c1ccc(O)cc1O	85	93	2	x
O=C1CN(C(=O)c2ccc(S(=O)(=O)N3CCCC3)cc2)C(c2ccccc2)c2cc(Cl)ccc2N1 (configuration not stated)	102	95	-28	102
O=C(Cn1ncc2c1-c1ccccc1OC2)Nc1nccs1	88	82	x	100

The last 2 compounds of the part before are carried over, then new ones follow:
SMILES	Sa growth 42C	Sa growth 42C second temp	HCMV NEC inh	GIV Gai3 FP
O=C1CN(C(=O)c2ccc(S(=O)(=O)N3CCCC3)cc2)C(c2ccccc2)c2cc(Cl)ccc2N1 (configuration not stated)	102	95	-28	102
O=C(Cn1ncc2c1-c1ccccc1OC2)Nc1nccs1	88	82	x	100
Cc1ccccc1CNC(=O)Cn1c(=O)c2cccn2c2cccnc21	128	79	x	98
CN(Cc1ccccc1)c1ccc(-c2nc(-c3ccc(F)cc3)no2)nn1	x	x	-32	102
Cc1ccc(NC(=O)c2oc3ccc(S(=O)(=O)N4CCCCC4)cc3c2C)cc1Cl	105	94	x	103
O=C(/C=C/c1cccs1)NCCOc1ccccc1	106	96	-46	x
COc1ccc(/C=C/C(=O)Nc2ccc3nc(N4CCC(C)CC4)cc(C)c3c2)cc1OC	108	89	-14	100
CCOc1ccc(CCNC(=O)CN2CCN(Cc3ccccc3C)C2=O)cc1OCC	86	87	-23	104
CC(C)OC(=O)C1=C(N)OC2=C(C(=O)CCC2)C1c1ccccc1F (configuration not stated)	101	77	-18	102
Cc1cccc(Nc2nnc(-c3ccc(C)c(S(=O)(=O)N4CCCCC4)c3)c3ccccc23)c1	99	89	7	106
CCCCN(C)S(=O)(=O)c1ccc(C(=O)Nc2nnc(-c3ccco3)o2)cc1	82	77	-37	103
CN(C(=O)COC(=O)c1cc2ccccc2cc1O)c1ccccc1	92	92	-51	x
Cc1nc2nc[nH]n2c(=O)c1CCC(=O)O	91	93	8	113

One compound at a time (already shown):
`CC(C)OC(=O)C1=C(N)OC2=C(C(=O)CCC2)C1c1ccccc1F` (configuration not stated) in the list: Sa growth 42C = 101; Sa growth 42C second temp = 77; HCMV NEC inh = -18; GIV Gai3 FP = 102
`COc1ccc(/C=C/C(=O)Nc2ccc3nc(N4CCC(C)CC4)cc(C)c3c2)cc1OC` in the list: Sa growth 42C = 108; Sa growth 42C second temp = 89; HCMV NEC inh = -14; GIV Gai3 FP = 100

Assay outcomes (PubChem)
